NPYLR7 agonist: activates Aedes aegypti NPYLR7 receptor; HEK293T NPYLR7/Galpha15, GCaMP6s calcium fluorescence; activation, % at 10 µM; 270,000 compounds, 0.15% hits; AID 1259423; in the data active = activation above about 40%;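 note: 0% = vehicle and 100% = reference agonist at the receptor; some compounds past the cut are filed as inactive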
NPYLR7 agonist max-min: second read-out of NPYLR7 agonist, no call of its own (marks repeat the call); activation, %; measured here: Max-Min RFU normalised activation; some inactives read as strong as hits;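 span of the calcium signal over five minutes; 0% = vehicle and 100% = native peptide agonist; compound fluorescence can raise it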
* hit, by the source's call; & = joins results of further samples. A portion of the library; count on the stated rates, not on these rows.

molecule	NPYLR7 agonist	NPYLR7 agonist max-min
CCN(CC)Cc1cnc2c(C(=O)NC3Cc4ccccc4C3)cnn2c1	-1	61
NC(=O)c1cccc(Cn2c(-c3ccccc3Cl)csc2=O)c1	-6	-7
CCC(=O)Nc1cccc(C(=O)N(Cc2ccccn2)CC(C)C)c1	4	4
CCc1ccc(C2=C(C(C)=O)Sc3nnc(C)n3N2C(C)=O)cc1	4	0
CNC(=O)CSc1nc(-c2ccccc2)c(NC(=O)C2CCCC2)s1	5	-1
O=C(O)c1ccc(CSc2nc(N3CCOCC3)cc(C(F)(F)F)n2)cc1	11	23
CC1(C(=O)NC2CCCC2)CCN1C(=O)Cc1ccc(-c2ccccc2)cc1 (stereo not drawn)	-4	-6
CCN(CC)CCCN1CCc2c(C)c(C#N)c3nc4ccccc4n3c21	11	6

Next section:
molecule	NPYLR7 agonist	NPYLR7 agonist max-min
O=C(CCn1nnc2ccccc21)NCc1cnn2ccccc12	-2	-6
COc1cccc(OC)c1-c1ccc(C(=O)NC2CCCCC2)o1	9	8
COc1ccc(N2C(=O)CSC2c2ccc(SC)cc2)cc1 (stereo not drawn)	-4	-9
CSc1ccccc1NC(=O)C1(C)CCN1C(=O)Cc1ccc(C(C)(C)C)cc1 (stereo not drawn)	1	1
CCn1cc(C(=O)N2CCN(C(=O)COC)CC2)c2nn(-c3ccccc3)c(=O)c-2c1	2	1
COc1ccc(CN2CCN(Cc3cnc(N4CCCC4)s3)CC2CCO)c(F)c1 (stereo not drawn)	18	4
CCCCN(Cc1ccco1)C(=O)C1CCN(c2ncccn2)CC1	-3	-12
CC(Sc1nc(-c2ccco2)nc2ccccc12)C(=O)N1CCOCC1 (stereo not drawn)	1	-3

Later entries.
molecule	NPYLR7 agonist	NPYLR7 agonist max-min
Cc1cccc(-n2nc(C)cc2NC(=O)C2CCCO2)c1 (stereo not drawn)	0	-1
CC1CN(c2nc3c([nH]2)c(=O)n(C)c(=O)n3C)CC(C)O1 (stereo not drawn)	4	3
COCC(=O)Nc1cc(C(=O)N2CCN(Cc3ccccc3)CC2)c2c(c1)nc(-c1ccncc1)n2C	31	18
COCCN1CCN(c2cc(Oc3ccc(Cl)c(C)c3)ncn2)CC1	-1	10
Nc1ccc(N2CCCC2)c(C(=O)NCc2ccccc2)c1	3	3
CN1CC2(CCCN(C(=O)c3cccc4nccnc34)C2)OC1=O (stereo not drawn)	3	1
Cn1c(CN2CCCCC2c2ccccn2)cc2cc(F)ccc21 (stereo not drawn)	20	2
O=C1CCc2cc(S(=O)(=O)NCCC(c3ccccc3)c3ccccc3)cc3c2N1CC3	10	7

(further entries)
molecule	NPYLR7 agonist	NPYLR7 agonist max-min
Nc1cc(-c2cccc(C(F)(F)F)c2)nn1-c1ccc(C(=O)N2CCC[C@H]2C(=O)OCc2ccccc2)cc1	-7	-10
Cn1cc(-c2cc3cnc(Nc4cccc(O)c4)cc3n2Cc2ccccc2)cn1	-1	-4
CCCN1C(=O)C(=Cc2ccc(OCC3CCCO3)cc2)SC1=S (stereo not drawn)	8	12
CNC(=O)[C@@H]1C[C@H](N)CN1Cc1ccc(-c2nc3ccccc3n2C)o1	15	5
Cn1ccc(NC(=O)C2(c3ccc(F)cc3)CCCCC2)n1	6	3
CC(C)S(=O)(=O)c1ncc(CN2CCc3ccccc3C2)n1CCc1ccccc1	22	17
CC1CN2C(=O)CN(C(=O)c3cccc4c3-c3ccccc3C4=O)CC2c2ccccc21 (stereo not drawn)	35	35
CC1(C)CC(=O)C2=C(C1)N=C1SCCC(=O)N1C2c1ccc(C(F)(F)F)cc1 (stereo not drawn)	-6&-5	-15&-7

Additional structures
molecule	NPYLR7 agonist	NPYLR7 agonist max-min
CCc1nc2n(n1)CCCC2Nc1nc(C2CC2)no1 (stereo not drawn)	10&1	7&0
CC(C)CCOC(=O)c1ccc(N2C(=O)c3ccccc3C2=O)cc1	0	-5
CCCNC(=O)N(CC(=O)N1CCc2sccc2C1COc1ccc(C(C)C)cc1)Cc1ccco1 (stereo not drawn)	-3	3
Cc1[nH]n(-c2ccccc2)c(=O)c1N=Nc1ccc2c(c1)OCCO2	-2	-6
CCSc1nc(-c2ccccc2)nc2c1Cc1c(CO)cnc(C)c1O2	10	14
CC(C(=O)Nc1cc(F)ccc1F)N1CCN(C(=O)c2ccco2)CC1 (stereo not drawn)	-4	-5
CCCSc1nc(C)c(C(=O)Nc2ccccc2)c(-c2ccc(OC)cc2)c1C#N	-3	-9
Oc1ccc(-c2cc(NCc3cccnc3)nc3[nH]ccc23)c(F)c1	3	1

The results go on:
molecule	NPYLR7 agonist	NPYLR7 agonist max-min
O=c1c2ccccc2ncn1CCS(=O)(=O)NC1CCSc2ccc(Cl)cc21 (stereo not drawn)	2	5
COc1nc(C)ccc1CNC(=O)C(=O)Nc1cccc(F)c1F	0	5
COc1ccc(NC(=O)CN2C(=O)c3ccccc3C2=O)cc1Cl	-9	-15
COc1ccc(C(=O)Nc2ccc(Br)cc2F)cc1[N+](=O)[O-]	-4	-4
Cc1ccc(C)c(-n2nc(C)c(C(=O)N3CCC4(CCOC4=O)C3)c2C)c1 (stereo not drawn)	-1	6
CCOCCN1CCC(=O)N(Cc2ccccc2)C(CC)C1 (stereo not drawn)	1	21
Cc1cc(C)c2c(c1C(=O)N1Cc3cccc4cccc(c34)C1)CC(C)(C)C2=O	5	5
COc1ccc(-c2nnc(-c3cccnc3)o2)cc1OC	7	10

Next section
molecule	NPYLR7 agonist	NPYLR7 agonist max-min
CS(=O)(=O)NC(c1cccc(F)c1)C1CCCC1 (stereo not drawn)	-24&8	-25&6
O=C(CC1CC2CCC1C2)Nc1ncn[nH]1 (stereo not drawn)	0	0
COCCN(CC(=O)N1CC(=O)N(c2cccc(C)c2)C1)C(=O)C(C)(C)CCl	26	33
NC(CO)c1csc(Nc2ccc(C(F)(F)F)cn2)n1 (stereo not drawn)	3	5
Cc1ccc(CN(Cc2ccccc2)C(=O)CN(CCN2CCOCC2)C(=O)C2C[C@H]2c2ccccc2)o1 (stereo partly drawn)	2	13
CC(c1nc(-c2cccs2)no1)N1CCC(c2ccccc2)CC1 (stereo not drawn)	-18	-18
O=S(=O)(Nc1ccc(F)c(F)c1)c1ccc(Cl)c(Cl)c1	1	-2
O=C(NCCCC(=O)N1CCOC(COc2ccc3c(c2)CCCC3)C1)OCc1ccccc1 (stereo not drawn)	23	30

Continued.
molecule	NPYLR7 agonist	NPYLR7 agonist max-min
CC(=O)N1CCN(c2c(C)cnc3c2c(=O)n(CC(=O)N(C)c2ccccc2)c(=O)n3C)CC1	-1	-2
COc1ccccc1CN(C)C(=O)COC(=O)c1ccc(O)cc1O	-1	-2
COc1ccc(S(=O)(=O)N2CCCC(C)C2)cc1N1CCN(C(=O)c2cc(F)ccc2Cl)CC1 (stereo not drawn)	23	11
CCS(=O)(=O)Nc1ccccc1Oc1ccc(C)cc1	-1	-1
C#CCNC(=O)N(C)C1CCCC1SC (stereo not drawn)	11	7
CCc1cc(CN(C)C(=O)c2cccnc2N2CCOCC2)on1	-7	-12
O=C(O)C1CC=CCC1C(=O)Nc1ccc(OCc2ccccn2)c(Cl)c1 (stereo not drawn)	4	3
Cc1ccc(-n2nnc3c(=O)n(Cc4cccc(C)c4)cnc32)cc1	9	14

More records follow.
molecule	NPYLR7 agonist	NPYLR7 agonist max-min
Cc1nc2ccc(NC(C)C(=O)Nc3ccc4c(c3)OCO4)cc2s1 (stereo not drawn)	1	0
CCc1nc2c(OCc3ccc(C(F)(F)F)cc3)cccn2c1N(C)C(=O)c1ccco1	7	-7
COc1c(O)cccc1/C=C/c1nc2cc(Cl)ccc2s1	-3	-6
Cc1ccc(Cl)cc1NC(=O)NCC(O)COc1ccccc1 (stereo not drawn)	8	4
O=C(NCc1ccccc1OC(F)(F)F)C1CCC(=O)N(CCc2ccccn2)C1 (stereo not drawn)	5	5
CCOC(=O)C1CCN(CC(=O)N2N=C(c3cccc(F)c3)CC2c2ccc(C)cc2)CC1 (stereo not drawn)	3	6
COc1ccc(-n2cc(CNCc3cc(C)no3)c(-c3ccccc3Cl)n2)cc1	11	-3
O=C(NC1CCN(c2ccccc2C(=O)NCc2ccccc2F)CC1)c1cc(F)cc(F)c1	20	12

An excerpt from above in order of SMILES length, high to low:
molecule	NPYLR7 agonist	NPYLR7 agonist max-min
O=C(NC1CCN(c2ccccc2C(=O)NCc2ccccc2F)CC1)c1cc(F)cc(F)c1	20	12
O=C(NCc1ccccc1OC(F)(F)F)C1CCC(=O)N(CCc2ccccn2)C1 (stereo not drawn)	5	5
Cc1nc2ccc(NC(C)C(=O)Nc3ccc4c(c3)OCO4)cc2s1 (stereo not drawn)	1	0
Cc1ccc(Cl)cc1NC(=O)NCC(O)COc1ccccc1 (stereo not drawn)	8	4

(further entries)
molecule	NPYLR7 agonist	NPYLR7 agonist max-min
N#CCCN(CCC#N)C(=O)CN1CCCC(N2CCCCCC2)C1 (stereo not drawn)	8	-11
FC(F)(F)c1cccc(N2CCN(C3CCCN(C4CCSCC4)C3)CC2)c1 (stereo not drawn)	12	6
CC(NC1CC1)c1ccccc1F (stereo not drawn)	16	29
CS(=O)(=O)Nc1ccc(NS(=O)(=O)c2cccc(Cl)c2)cc1	5	3
Cc1ccc(-c2cccc(C(=O)N[C@H]3C[C@H]4C(=O)N(C)CC(=O)N4C3)c2)o1	3	2
COc1ccc2nc(-c3ccc(C)c(NC(=O)c4ccc5c(c4)OCO5)c3)cn2n1	-4	-12
CCOc1ccc(SCC(=O)N(C)C)cc1	13	10
Fc1ccc(-c2nnc(SCc3ccccc3C(F)(F)F)n2-c2ccccc2)cc1	5	9

The list goes on.
molecule	NPYLR7 agonist	NPYLR7 agonist max-min
CCC(C)N1C(=O)C(=Cc2c(N3CCCCC3)nc3ccccn3c2=O)SC1=S (stereo not drawn)	4	1
CCOC(=O)c1cnc(-c2ccncc2)nc1NCCc1cccc(OC)c1	11	18
O=C(Cc1nc2ccccc2[nH]1)c1cc(Cl)c(O)cc1O	0	-3
O=C(CSc1nnc(NC(=O)c2ccc(N3C(=O)CCC3=O)cc2)s1)Nc1nccs1	-5	3
Cc1cc(C)n(Cc2cc(C(=O)N3CCN(c4ccccc4)C(=O)C3)n[nH]2)n1	3	1
COc1cccc(C(=O)NC(C(=O)N2CCCC2)C2CCN(C(=O)c3ccc(Cl)cc3)CC2)c1 (stereo not drawn)	-6	-3
COc1cc(NCc2ncc[nH]2)ccc1Br	-1	-3
CCCCCN(CC(=O)OCc1ccccc1)CC(=O)N(CCc1ccccc1)Cc1ccc(C)o1	22	25

Carrying on.
molecule	NPYLR7 agonist	NPYLR7 agonist max-min
CC1(C(=O)Nc2ccccc2Cc2ccccc2)CCN1Cc1ccccc1OC(F)F (stereo not drawn)	8	1
Cc1nnc(CNC(=O)c2ccccc2NCc2sccc2C)o1	-5	-5
O=c1c2cccc3c2c(nn1CCN1CCCCC1)-c1ccccc1-3	7	4
COc1ccccc1CSc1nnc(-c2ccco2)n1-c1ccccc1C	-6	-1

Compounds from the list above with a CF3 group, in the order listed:
molecule	NPYLR7 agonist	NPYLR7 agonist max-min
O=C(O)c1ccc(CSc2nc(N3CCOCC3)cc(C(F)(F)F)n2)cc1	11	23
Nc1cc(-c2cccc(C(F)(F)F)c2)nn1-c1ccc(C(=O)N2CCC[C@H]2C(=O)OCc2ccccc2)cc1	-7	-10
CC1(C)CC(=O)C2=C(C1)N=C1SCCC(=O)N1C2c1ccc(C(F)(F)F)cc1 (stereo not drawn)	-6&-5	-15&-7
NC(CO)c1csc(Nc2ccc(C(F)(F)F)cn2)n1 (stereo not drawn)	3	5
CCc1nc2c(OCc3ccc(C(F)(F)F)cc3)cccn2c1N(C)C(=O)c1ccco1	7	-7
O=C(NCc1ccccc1OC(F)(F)F)C1CCC(=O)N(CCc2ccccn2)C1 (stereo not drawn)	5	5
FC(F)(F)c1cccc(N2CCN(C3CCCN(C4CCSCC4)C3)CC2)c1 (stereo not drawn)	12	6
Fc1ccc(-c2nnc(SCc3ccccc3C(F)(F)F)n2-c2ccccc2)cc1	5	9
